Tgondii IFNg = T. gondii growth inhibition with IFN-gamma, primary screen, cell-based; Toxoplasma gondii growth in IFN-gamma-treated host cells; hits give low values; reference of the scale not given here; activity change, negative = inhibition, %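 (about 20 µM by stock and volumes)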; 69,000 tested, 3.8% active; AID 1259416, 2018;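 active means below -70%; inconclusive means fit judged invalid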;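 further: host cells are HeLa cells infected with Toxoplasma gondii; parasite growth read as luciferase light; one replicate is shown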
Active calls of the source: *; ? = inconclusive; & = joins results of further samples. A portion of the library; the hit share may differ from the screen's.

SMILES | Tgondii IFNg
Cc1cc(N/N=C2\CCc3ccccc32)nc(-c2ccccc2O)n1 | 258.3
COc1ccc(NC(=O)c2cncc(NS(=O)(=O)c3ccc(C)cc3C)c2)cc1 | 25.5
CN(C)C(=O)N1CCN(CC2CC2)c2ncccc2C1 | 8.4
C/C=C/c1ccccc1[C@@H]1[C@@H](C#N)N(C(=O)Cc2ccccn2)[C@H]1CO | -25.4
Cc1cc(CN(C)Cc2ccc(OCC(=O)N3CCCC3)cc2)n[nH]1 | -10.7
C=CCn1c(=O)c(C(=O)NCc2ccco2)c(O)c2ccccc21 | 114.1
COc1ccc(S(=O)(=O)N(C)C[C@@H]2Oc3c(NC(=O)c4nc5ccccc5s4)cccc3C(=O)N([C@@H](C)CO)C[C@H]2C)cc1 | -44.9
CN(C)c1ncnc2c1CCN(C(=O)c1cn[nH]c1-c1cccc(F)c1)C2 | -23.6
CN1C(=O)c2cc(NC(=O)C3CCOCC3)ccc2OC[C@@H]2O[C@H](CC(=O)NCC3CCCCC3)CC[C@@H]21 | 3.0
Cc1nc(NCC(O)COc2ccc(Cl)c(C)c2)c2cnn(C)c2n1 (stereo not drawn) | -7.2
Cc1ncnc(NCc2cccnc2Oc2cccc(C(F)(F)F)c2)c1C | -21.4
COc1ccc(CNC(=O)Cn2nc(C)c3sc(-c4ccccc4)nc3c2=O)cc1 | 35.3
CO[C@H]1CC[C@@H]2[C@@H]1OCCN2C(=O)c1cn2cc(Cl)ccc2n1 | 11.2
O=C(c1ccccc1C1CCNC1)N(Cc1cccc(O)c1)C1CC1 (stereo not drawn) | -7.1
C[C@H](Cn1c(C(F)(F)F)cc2cccnc21)NC(=O)Cc1ccc2c(c1)OCO2 | 42.7
c1cnc(N2CC3(CCNCC3)CC2COCC2CC2)nc1 (stereo not drawn) | -67.7
O=C(Cc1ccccc1)N1CC[C@@H](O)[C@@H]1Cc1ccccc1 | -3.8
CC(c1cccc(-c2ccc[nH]c2=O)c1)N1CCCC1 (stereo not drawn) | 2.6
Cc1cccc(COc2cccnc2N)c1 | 41.7
CC(=O)N(C)Cc1ncn2c1CN(C(=O)C1CCCO1)CCC2 (stereo not drawn) | -1.4
C=C(C)COc1ccc(C(=O)N2CCOCC2CCC)cc1 (stereo not drawn) | 6.5
CCOC(=O)N1CCC2(CC1)OC(=O)C(C)=C2C(=O)NCCCOC | 24.3
COc1c(F)cc(-c2cccc(NC(C)=O)c2)cc1F | 47.0
O=C(CCc1ccccc1)N1CCC2(CC1)Nc1cc(F)ccc1-n1cccc12 | 44.5

An excerpt from further up:
SMILES | Tgondii IFNg
CCOC(=O)N1CCC2(CC1)OC(=O)C(C)=C2C(=O)NCCCOC | 24.3
COc1c(F)cc(-c2cccc(NC(C)=O)c2)cc1F | 47.0
O=C(CCc1ccccc1)N1CCC2(CC1)Nc1cc(F)ccc1-n1cccc12 | 44.5

Next compounds follow.
SMILES | Tgondii IFNg
CN(C)S(=O)(=O)c1ccc(S(=O)(=O)N2CC=C(c3ccc(F)cc3)CC2)cc1 | 9.7
CC(=O)N1CC2(CCN(C(=O)c3ccc(-n4ccnc4)cc3)CC2)CC1C(=O)O (stereo not drawn) | -39.8
COCC1c2c(cnn2CC2CC2)CCN1C(=O)Cc1ccccc1F (stereo not drawn) | 1.6
CCOc1ccc(-c2nccn2Cc2cccnc2)cn1 | 2.5
Cc1cc(N2CCCN(Cc3ccc4cccc(O)c4n3)CC2)ccn1 | -8.5
Nc1nc2c(-c3ccc(Br)cc3)nnn2c2ccccc12 | 287.8
CC(C)N(C)CC1CN(S(=O)(=O)C2CC2)Cc2nccn2C1 (stereo not drawn) | 37.2
O=C(CN1C(=O)CCc2cc(S(=O)(=O)N3CCCC3)ccc21)NCCc1nc2ccc(F)cc2[nH]1 | 32.3
CCCNC(=O)c1cc2c(c(-c3cccc(-c4cc5ccccc5o4)c3)n1)[C@H](CCO)N(C(=O)NC(C)C)C2 | -71.2*
COc1cccc(CNC(=O)c2nc3c(o2)CN(c2ncccn2)C3)c1 | -8.7
OCCCCNc1cccc2ccccc12 | 26.5
O=C(O)CN1CCOC2C(CNC(=O)c3ccco3)CCC21 (stereo not drawn) | 4.0
CCCCN1C(=O)N(c2nnc(C(C)(C)C)s2)C(O)C1c1ccc(Cl)c(Cl)c1 (stereo not drawn) | -68.3
C=CCn1c(SCc2ccc(C(=O)NCCO)cc2)nc2ccccc2c1=O | -34.4
CN1[C@@H]2c3ccc(-c4ccncc4)c(=O)n3C[C@H]1[C@H](CO)[C@H]2C(=O)N1CCC(Cc2ccccc2)CC1 | 6.1
CC1Cc2cc(CNC(=O)CCNC(=O)c3ccc(F)cc3)ccc2O1 (stereo not drawn) | 34.3
COc1ccc2oc(C)c(C(N)=O)c2c1 | 5.6
CCOc1ccccc1-c1nc(Cn2nnc(C(=O)Nc3cc(Cl)ccc3C)c2C)c(C)o1 | 99.9
COc1ccccc1-c1nc(Cn2nnc(-c3nc(-c4ccc(SC)cc4)no3)c2C)c(C)o1 | -14.2
Cc1cccc(NC(=O)N2CCC3(C2)CN(c2ccsc2)C(=O)CN3C)c1 (stereo not drawn) | -44.8
CC(C)C(=O)NCCn1cnc(-c2ccccc2)c1-c1cnc(N(C)C)s1 | -39.4
COc1cccc(CN2CCC3(CCN(Cc4nccn4C)CC3)C2)c1 | -21.4
c1ccc(CCNc2c(-c3ccccn3)nc3cnccn23)cc1 | -15.0
CNC(=O)c1ccc(-c2ccc(C3CCCN3C(=O)c3n[nH]c4c3CCC4)nc2)cn1 (stereo not drawn) | 39.3
Cc1cc(C(=O)NC2CCC3(CCC(=O)N3CC3CC3)CC2)c(C)o1 (stereo not drawn) | 10.8
CC1(C)c2cc(Cl)ccc2-n2c1cc(O)c(-c1ccccc1)c2=O | -38.3
O=S(=O)(NC[C@@H]1[C@H](c2ccccc2)[C@@H](CO)N1CC1CC1)c1ccccc1 | 7.7
Cn1cccc1C(=O)N[C@H]1CN(C(N)=O)C2CCCOC21 (stereo partly drawn) | 0.0
Clc1ccc2c(c1)NC(c1cccc3ccccc13)O2 (stereo not drawn) | 95.9
COCCNC(=O)C[C@H]1C[C@@H]2CN(c3cc(OC)ncn3)C[C@H]2O1 | 3.5
O=C(Nc1cnn(-c2ncc(N3CCCCC3)cn2)c1)NC1CCCC1 | 64.4
Clc1ccc(-c2nnc(-c3nc(NCc4cccnc4)c4ccccc4n3)o2)cc1 | -47.0
O=C1Nc2ccc(F)cc2C1(O)Cc1ccncc1 (stereo not drawn) | -0.6
CC1CCN(c2nc(-c3ccccc3)ns2)CC1 | 329.2
O=C(Nc1ccccc1)C1CCN(c2c3c(nc4ncnn24)CCC3)CC1 | 4.0
O=C(NCC[C@@H]1CC[C@@H](NC(=O)c2ccncc2)[C@H](CO)O1)Nc1ccc(Cl)cc1 | -36.3
Cc1oc(C(C)C)cc1C(=O)NCCC1CN(C)CCO1 (stereo not drawn) | -5.0
O=C(c1ccncn1)N1CCCC2(C=Cc3ccccc3O2)CC1 (stereo not drawn) | 2.2
O=C(NCCCc1ccc(F)cc1)c1n[nH]c2c1CCCCC2 | -4.7
COc1cc(NC(=O)N2CCC3(CC2)Nc2ccccc2-n2cccc23)cc(OC)c1OC | 472.0
Cc1cccc(CN2CCN(Cc3cnn(C)c3)CC2)c1 | -3.7
CN(Cc1cncnc1)[C@H]1CN(S(C)(=O)=O)[C@H]2CCCO[C@@H]12 | 2.3
Cn1[nH]c(=O)c(=O)[nH]c1=S | 23.7
O=C(C[C@@H]1CC[C@H](NC(=O)C2CCOCC2)[C@@H](CO)O1)NCC1CCCCC1 | -37.8
O=C(C[C@@H]1CC[C@H]2NC[C@@H](O)COC[C@@H]2O1)NC1Cc2ccccc2C1 | 13.8
Cc1ccc(S(=O)(=O)Nc2cc(=O)[nH]c(SCc3ccccc3Cl)n2)cc1 | -1.6
CCN1C(=O)CCc2cc(NS(=O)(=O)c3ccc(C4CCCCC4)cc3)ccc21 | -95.1*
O=S(=O)(c1cccc(F)c1)N1CC[C@H]2[C@@H]1CCN2c1ncccn1 | -8.7
CCSc1nc(O)c(C2OC(=O)c3c2ccc(OC)c3OC)c(=O)n1CC (stereo not drawn) | -6.1
Cc1cccc(-c2nnc(-c3nc(NCc4ccc(C)o4)c4ccccc4n3)o2)c1 | -80.4*
COc1ccc(S(=O)(=O)Nc2ccc3c(c2)OC[C@H](C)NC[C@@H](C)[C@H](OC)CN(C)C3=O)cc1 | 13.4
CCCNC(=O)N1C[C@@H](C)[C@H](OC)CN(C)C(=O)c2ccc(NC(=O)CC)cc2OC[C@@H]1C | -32.7
O=C(NN1CCOCC1)c1ccc(Cl)s1 | -23.2
COc1ccccc1-n1cc(C(=O)N2[C@@H]3CC[C@H]2CNC(=O)C3)cn1 | -8.6
CC(C)(C)c1cc(-c2cc(C(F)(F)F)[nH]n2)c2c(c1)C(C)(C)CC2 | -87.4*
CN1C[C@@H]2CN(C(=O)C3CC3)C[C@@H]2c2ccccc21 | 36.9
Cc1ncc(-c2nnnn2-c2ccccc2)c(CN(C)C)n1 | 1.5
CC1=N[C@]2(CC[C@H]3CN(Cc4c(C)noc4C)C[C@H]32)C(=O)N1CC(C)C | -46.3
Cc1ccc(NC(=O)Cn2c(=O)cc(C(=O)N3CCOCC3)c3ccccc32)cc1 | 6.9
Cc1ccc(CNCCCN2CCOCC2)o1 | 39.3
Next section.
SMILES | Tgondii IFNg
COc1ccccc1-c1nc(CN(c2ccc(C)cc2)S(=O)(=O)c2cccs2)c(C)o1 | -29.5
CCO[C@H]1COC[C@@H]1NC(=O)CSCc1ccccc1Cl | 8.4
CCn1ncc(C(=O)N2CCc3nc(N(C)C)[nH]c(=O)c3CC2)c1C | 4.3
CCc1csc(N2[C@H](CO)[C@H](c3ccccc3)[C@@H]2CN(C)C(=O)C2CCC2)n1 | -37.2
Clc1ccc(C2N=C(c3cnccn3)NN2)cc1 (stereo not drawn) | 392.7
CNC(=O)[C@H](Cc1c[nH]c2ccccc12)NC(=O)[C@@H](CC(=O)NO)CC(C)C | 5.1&-8.1
O=C(c1ccccc1Cl)N1CCC2(CC1)Nc1cccnc1NC2=NC1CCCC1 | ?
COc1ccc2c3c(n(C)c2c1)[C@@H](CO)N(Cc1cccc(F)c1)CC31CCN(C(=O)Cc2ccccc2)CC1 | -43.2
CC(C)C(=O)N1CCC2(CC1)CC(CC(=O)N1CCCC1)c1ccccc12 (stereo not drawn) | -3.9
O=C(NCCc1csc(-c2ccccc2)n1)C1CCN(C(=O)c2ccc(F)c(Cl)c2)CC1 | -50.4
CCn1cnc2cc(NC(=O)CCC(=O)Nc3nc(C)c(C)s3)ccc21 | 42.3
COc1ccc(C(OC(=O)c2ccco2)C(=O)NCCc2ccccc2)cc1 (stereo not drawn) | -3.4
COc1cccc([C@@H]2CN(C(=O)CN(C)CCc3ccccc3)C[C@H]2c2csnn2)c1 | -11.7
CCc1ccc(Nc2nc(-c3nnc(-c4ccc(OC)cc4)o3)nc3ccccc23)cc1 | 135.7
CC(C)CCN1C[C@H]2[C@@H](C(=O)NCc3ccccc3)CCS(=O)(=O)[C@H]2C1 | 4.7
O=c1[nH]cnc2c1ncn2COCCO | 55.8
O=C(CSc1ccccc1)NC1=NCCS1 | 0.9
CCC(c1nnnn1Cc1ccccc1)N1CCN(C(=O)c2ccco2)CC1 (stereo not drawn) | -23.5
CCOC(=O)c1nnc2cc(-c3cccs3)sc2n1 | 35.9
O=C(C[C@@H]1CC[C@@H]2[C@H](COC[C@@H](O)CN2C(=O)Nc2cc(Cl)cc(Cl)c2)O1)N1CCOCC1 | -41.3
Nc1ncnc2c1ncn2[C@@H]1O[C@H](C[C@@H](N)CC[C@H](N)C(=O)O)[C@@H](O)[C@H]1O | -67.3
CO[C@@H]1CCN(C(=O)NCc2cccc(F)c2)[C@H]1Cc1cnn(C)c1 | 1.4
CCCNC(=O)N1N=C(c2ccc(N)cc2)c2cc3c(cc2C1C)OCO3 (stereo not drawn) | -1.0&13.7
COc1ccc2[nH]c(CNC(=O)c3cn(C4CCCCC4)nn3)cc2c1 | -4.3
Cc1ccccc1C1(O)CCN(Cc2cn[nH]c2-c2ccc(F)cc2)C1 (stereo not drawn) | -3.9
COCC(=O)NC[C@H]1[C@H](c2ccccc2)[C@H](CO)N1C(=O)c1ccccc1 | 23.3
COCCc1nnc(NC(=O)C2(Cc3ccccc3-c3cccnc3)CCOCC2)s1 | 50.7
Nc1nc(-c2csc3ccccc23)cs1 | 40.1
COc1ccc(-c2ccc(F)c(CO)c2)nn1 | -1.8
COc1ccc2c3c([nH]c2c1)[C@H](CO)N(C(=O)C1CCOCC1)CC31CCN(Cc2cccc(F)c2)CC1 | -22.4
Clc1ccc(OCCCN2CCCCC2)c(Br)c1 | 65.9

Sorted by count of non-hydrogen atoms (lowest first): 12 of the compounds above
SMILES | Tgondii IFNg
O=c1[nH]cnc2c1ncn2COCCO | 55.8
O=C(CSc1ccccc1)NC1=NCCS1 | 0.9
COc1ccc(-c2ccc(F)c(CO)c2)nn1 | -1.8
Clc1ccc(OCCCN2CCCCC2)c(Br)c1 | 65.9
CCOC(=O)c1nnc2cc(-c3cccs3)sc2n1 | 35.9
CO[C@@H]1CCN(C(=O)NCc2cccc(F)c2)[C@H]1Cc1cnn(C)c1 | 1.4
COc1ccc2[nH]c(CNC(=O)c3cn(C4CCCCC4)nn3)cc2c1 | -4.3
COCC(=O)NC[C@H]1[C@H](c2ccccc2)[C@H](CO)N1C(=O)c1ccccc1 | 23.3
CCC(c1nnnn1Cc1ccccc1)N1CCN(C(=O)c2ccco2)CC1 (stereo not drawn) | -23.5
COCCc1nnc(NC(=O)C2(Cc3ccccc3-c3cccnc3)CCOCC2)s1 | 50.7
O=C(C[C@@H]1CC[C@@H]2[C@H](COC[C@@H](O)CN2C(=O)Nc2cc(Cl)cc(Cl)c2)O1)N1CCOCC1 | -41.3
COc1ccc2c3c([nH]c2c1)[C@H](CO)N(C(=O)C1CCOCC1)CC31CCN(Cc2cccc(F)c2)CC1 | -22.4
